Screens: PubChem, Broad Institute
ID4 SMM: binders of human ID4 protein; 31,000 tested, 1.2% active; P47928; calls only; small molecule microarray, Flag-ID4 binding, fluorescence F/B;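 active means spot signal over background at p below 0.07 in all four prints; compounds were printed on slides so no solution concentration is given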;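 further: a binder raises fluorescence above local background on the spot; about 2 pmol printed per array spot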
Target sequence (P47928 whole entry, looked up): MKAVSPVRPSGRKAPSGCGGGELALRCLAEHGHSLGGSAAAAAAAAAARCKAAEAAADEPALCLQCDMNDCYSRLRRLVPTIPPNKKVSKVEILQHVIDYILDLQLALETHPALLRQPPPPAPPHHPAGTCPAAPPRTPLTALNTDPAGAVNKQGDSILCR
Calls only. Only part of the results is shown; rates above refer to the full screens.

Preview, six compounds:
What do the screens show for `CCCC#Cc1cnc2c(c1)C(=O)N([C@@H](C)CO)C[C@@H](C)[C@H](CN(C)Cc1ccc(F)cc1)O2`?
ID4 SMM: inactive

What do the screens show for `O=C(C[C@@H]1CC[C@H](NC(=O)C2CC2)[C@H](CO)O1)NC1CCC1`?
ID4 SMM: inactive

What do the screens show for `CNC[C@H]1Oc2ncc(-c3ccc(OC)cc3)cc2C(=O)N([C@@H](C)CO)C[C@@H]1C`?
ID4 SMM: inactive

Results for CCNC(=O)C[C@@H]1CC[C@@H](NC(=O)C2CCC2)[C@@H](CO)O1 ?
ID4 SMM: inactive

Results for O=C(CSc1nnc(-c2ccc(Br)cc2)o1)Nc1ccc2ccccc2c1 ?
ID4 SMM: inactive

What do the screens show for `C[C@@H]1CN([C@@H](C)CO)C(=O)c2cc(Br)cnc2O[C@@H]1CN(C)Cc1ccccc1`?
ID4 SMM: inactive

Main list, previewed entries included:
What do the screens show for `CCCC#Cc1cnc2c(c1)C(=O)N([C@@H](C)CO)C[C@@H](C)[C@H](CN(C)Cc1ccc(F)cc1)O2`?
ID4 SMM: inactive

What do the screens show for `O=C(C[C@@H]1CC[C@H](NC(=O)C2CC2)[C@H](CO)O1)NC1CCC1`?
ID4 SMM: inactive

What do the screens show for `CNC[C@H]1Oc2ncc(-c3ccc(OC)cc3)cc2C(=O)N([C@@H](C)CO)C[C@@H]1C`?
ID4 SMM: inactive

Results for CCNC(=O)C[C@@H]1CC[C@@H](NC(=O)C2CCC2)[C@@H](CO)O1 ?
ID4 SMM: inactive

Results for O=C(CSc1nnc(-c2ccc(Br)cc2)o1)Nc1ccc2ccccc2c1 ?
ID4 SMM: inactive

What do the screens show for `C[C@@H]1CN([C@@H](C)CO)C(=O)c2cc(Br)cnc2O[C@@H]1CN(C)Cc1ccccc1`?
ID4 SMM: inactive

Results for CC(C)NC(=O)N[C@@H]1C=C[C@@H](CC(=O)NCCCN(C)C)O[C@H]1CO ?
ID4 SMM: inactive

What do the screens show for `CSc1cccc(NC(=O)CN(c2ccc3c(c2)OCCO3)S(C)(=O)=O)c1`?
ID4 SMM: inactive

Results for C[C@@H]1CN([C@@H](C)CO)C(=O)c2cc(C#CCN(C)C)cnc2O[C@H]1CN(C)Cc1cccc(F)c1 ?
ID4 SMM: inactive

Results for CC(C)C#Cc1ccc([C@H]2[C@@H](CO)N(C(=O)C3CCOCC3)[C@H]2C#N)cc1 ?
ID4 SMM: inactive

What do the screens show for `CS(=O)(=O)N(CC(=O)Nc1ccc(Cl)cc1)c1ccc(F)c(Cl)c1`?
ID4 SMM: inactive

Results for Cc1cc(NC(=O)C2CC(c3c(F)cccc3Cl)=NO2)n(-c2ccccc2)n1 (centres undefined) ?
ID4 SMM: inactive

Results for CCOC(=O)c1c(NC(=O)C(C)n2nc([N+](=O)[O-])c(Br)c2C)sc2c1CCC2 (centres undefined) ?
ID4 SMM: inactive

How did C[C@@H]1CN([C@H](C)CO)C(=O)c2ccccc2-c2ccccc2CO[C@H]1CN(C)C(=O)Nc1ccnc(N2CCOCC2)c1 do in these assays?
ID4 SMM: inactive

Results for Cc1ccc(-c2nc3ccccc3s2)cc1NC(=O)COc1ccc([N+](=O)[O-])cc1 ?
ID4 SMM: inactive

What do the screens show for `Cc1ccc([N+](=O)[O-])cc1NC(=O)CSc1nnnn1-c1ccccc1`?
ID4 SMM: inactive

Results for COc1ccccc1S(=O)(=O)N(C)C[C@H]1Oc2ncc(-c3ccc(C)cc3)cc2C(=O)N([C@H](C)CO)C[C@H]1C ?
ID4 SMM: inactive

Results for CCc1ccccc1NC(=O)CSc1nc2ccccc2c(=O)n1-c1ccccc1Cl ?
ID4 SMM: inactive

How did C[C@@H]1CN([C@@H](C)CO)C(=O)c2cc(C3=CCCC3)cnc2O[C@H]1CN(C)Cc1ccccc1 do in these assays?
ID4 SMM: inactive

Results for O=C(CSc1nc2ccccc2c(=O)[nH]1)Nc1ccc(Br)c(Cl)c1 ?
ID4 SMM: inactive

What do the screens show for `Cc1ccc(C(=O)CSc2ncnc3sc4c(c23)CCC4)cc1C`?
ID4 SMM: inactive

Results for COc1ccccc1-c1ccc2c(c1)O[C@H](CN(C)C)[C@H](C)CN([C@H](C)CO)S2(=O)=O ?
ID4 SMM: inactive

Results for COc1ccc(S(=O)(=O)N(C)C[C@@H]2Oc3cc(C4=CCCC4)ccc3S(=O)(=O)N([C@@H](C)CO)C[C@@H]2C)cc1 ?
ID4 SMM: inactive

Results for COc1ccc(NC(=O)CN2c3cccc4cccc(c34)S2(=O)=O)c(OC)c1 ?
ID4 SMM: inactive

Results for O=C(C[C@@H]1C=C[C@H](NS(=O)(=O)c2cccc(F)c2)[C@@H](CO)O1)N1CCCCC1 ?
ID4 SMM: inactive

How did CC(Sc1nc2ccccc2[nH]1)C(=O)Nc1cccc(Cl)c1 (centres undefined) do in these assays?
ID4 SMM: inactive

Results for COc1cc(C2c3c(cc(OC)c(O)c3OC)CC(CO[C@@H]3O[C@H](CO)[C@@H](O)[C@H](O)[C@H]3O)C2CO)cc(OC)c1O (some centres undefined) ?
ID4 SMM: inactive

Results for C[C@H](NC(=O)C[C@@H]1CC[C@@H](NC(=O)c2cccnc2)[C@H](CO)O1)c1ccccc1 ?
ID4 SMM: inactive

What do the screens show for `O=C(Nc1ccccc1C(=O)O)c1cc(S(=O)(=O)Nc2cccc(F)c2)ccc1Cl`?
ID4 SMM: inactive

Results for COC(=O)c1c(NC(=O)c2cc3ccccc3oc2=O)sc2c1C(C(=O)OC)CC2 (centres undefined) ?
ID4 SMM: inactive

What do the screens show for `C[C@H](CO)N1C[C@H](C)[C@@H](CN(C)Cc2cccnc2)Oc2ncc(-c3ccc(F)cc3)cc2C1=O`?
ID4 SMM: inactive

Results for CC(C)NC(=O)N(C)C[C@H]1Oc2cc(C3=CCCC3)ccc2S(=O)(=O)N([C@H](C)CO)C[C@H]1C ?
ID4 SMM: inactive

What do the screens show for `CC(C)NC(=O)N(C)C[C@H]1OCc2ccccc2-c2ccccc2C(=O)N([C@@H](C)CO)C[C@@H]1C`?
ID4 SMM: inactive

What do the screens show for `COc1ccc(C)cc1S(=O)(=O)N(C)CC(=O)NC1CC1`?
ID4 SMM: inactive

Results for CCCC#Cc1cnc2c(c1)C(=O)N([C@@H](C)CO)C[C@@H](C)[C@@H](CN(C)CCC)O2 ?
ID4 SMM: inactive

How did CCc1cccc(-n2c(-c3ccco3)nc3c(cnn3-c3ccccc3Cl)c2=O)c1 do in these assays?
ID4 SMM: inactive

What do the screens show for `C[C@@H]1CN([C@H](C)CO)C(=O)c2cc(-c3cccc(C#N)c3)cnc2O[C@@H]1CN(C)Cc1cncnc1`?
ID4 SMM: inactive

What do the screens show for `CN(C)S(=O)(=O)N1CCN(CC(=O)Nc2ccc(F)cc2)CC1`?
ID4 SMM: inactive

How did CC(C)CC#Cc1ccc2c(c1)O[C@@H](CN(C)C(=O)CC1CC1)[C@@H](C)CN([C@@H](C)CO)S2(=O)=O do in these assays?
ID4 SMM: inactive

Results for C[C@H](CO)N1C[C@H](C)[C@@H](CN(C)Cc2ccccc2)Oc2cc(-c3ccccc3)ccc2S1(=O)=O ?
ID4 SMM: inactive

How did COc1ccc(OC)c(S(=O)(=O)N2CCC(C(=O)Nc3c(C)cc(C)cc3C)CC2)c1 do in these assays?
ID4 SMM: inactive

How did Cc1ccc(-c2nnc(SCC(=O)Nc3ccccc3OC(F)F)o2)cc1 do in these assays?
ID4 SMM: inactive

Results for COC(=O)c1ccccc1NC(=O)C1CC(c2cc(Cl)c(OC)cc2OC)=NO1 (centres undefined) ?
ID4 SMM: inactive

What do the screens show for `N#CCCN1CCN(Cc2cc(-c3ccccc3)ccc2O)CC1`?
ID4 SMM: inactive

Results for CCOc1ccc(S(=O)(=O)NCC(=O)O)cc1 ?
ID4 SMM: inactive

How did O=C(NCC[C@@H]1CC[C@H](NC(=O)C2CC2)[C@@H](CO)O1)c1cc(Cl)cc(Cl)c1 do in these assays?
ID4 SMM: inactive

What do the screens show for `CO[C@@H]1CN(C)C(=O)c2ccc(NC(=O)C3CCOCC3)cc2OC[C@@H](C)NC[C@H]1C`?
ID4 SMM: inactive

How did C[C@@H]1CN([C@@H](C)CO)C(=O)c2cc(C#CC3CCCCC3)cnc2O[C@@H]1CN(C)Cc1cccnc1 do in these assays?
ID4 SMM: inactive

Results for COCC#Cc1ccc2c(c1)O[C@H](CN(C)C(=O)c1ccccc1F)[C@H](C)CN([C@H](C)CO)S2(=O)=O ?
ID4 SMM: inactive

How did O=C(Cn1ccc([N+](=O)[O-])n1)Nc1cccnc1 do in these assays?
ID4 SMM: inactive

3 entries drawn at random from the list so far, as already listed:
How did COc1ccc(OC)c(S(=O)(=O)N2CCC(C(=O)Nc3c(C)cc(C)cc3C)CC2)c1 do in these assays?
ID4 SMM: inactive

How did C[C@@H]1CN([C@@H](C)CO)C(=O)c2cc(C#CC3CCCCC3)cnc2O[C@@H]1CN(C)Cc1cccnc1 do in these assays?
ID4 SMM: inactive

Results for COC(=O)c1ccccc1NC(=O)C1CC(c2cc(Cl)c(OC)cc2OC)=NO1 (centres undefined) ?
ID4 SMM: inactive

Other entries
Results for C[N+]1(C)C2CC(OC(=O)[C@@H](CO)c3ccccc3)CC1C1OC12 (some centres undefined) ?
ID4 SMM: inactive

How did C/C=C/c1cnc2c(c1)C(=O)N([C@H](C)CO)C[C@H](C)[C@H](CN(C)S(=O)(=O)c1ccc(OC)cc1)O2 do in these assays?
ID4 SMM: inactive

Results for C[C@@H]1CN([C@H](C)CO)C(=O)Cc2cc(NC(=O)Cc3ccccc3)ccc2O[C@@H]1CN(C)C ?
ID4 SMM: inactive

What do the screens show for `CC(O)c1cccc(NC(=O)C2C3C=CC(C3)C2C(=O)O)c1` (centres undefined)?
ID4 SMM: inactive

How did CC(C)N1C(=O)[C@@]2(Cc3ccccc31)c1ccccc1C(=O)N(C1CCCCC1)[C@H]2c1ccc(CO)cc1 do in these assays?
ID4 SMM: inactive

What do the screens show for `COC(=O)c1cc(OC)c(OC)cc1NC(=O)COc1ccc(Cl)cc1Cl`?
ID4 SMM: inactive

How did C[C@@H]1CN([C@H](C)CO)S(=O)(=O)c2ccc(-c3ccc(C(=O)N(C)C)cc3)cc2O[C@@H]1CN(C)Cc1ccc2c(c1)OCO2 do in these assays?
ID4 SMM: active

Results for COc1ccccc1-c1cnc2c(c1)C(=O)N([C@@H](C)CO)C[C@H](C)[C@H](CN(C)Cc1ccncc1)O2 ?
ID4 SMM: inactive

What do the screens show for `CCOc1ccc(OCCSc2nc(C)cc(=O)[nH]2)cc1`?
ID4 SMM: inactive

What do the screens show for `CN(C)CCCc1cc(C(=O)Nc2ccc(-c3ccncc3)cc2)ccc1O`?
ID4 SMM: inactive

How did CS(=O)(=O)N(CC(=O)Nc1ccccc1-c1ccccc1)c1ccccc1Cl do in these assays?
ID4 SMM: inactive

What do the screens show for `O=C1O[C@H](c2ccccc2)[C@H](c2ccccc2)N2[C@H]1[C@@H](C(=O)N1CCN(c3ncccn3)CC1)[C@]1(C(=O)Nc3ccc(C#CC4(O)CCCCCC4)cc31)[C@H]2c1ccc(OCCO)cc1`?
ID4 SMM: inactive

How did COC(=O)c1c(NC(=S)Nc2cc3oc4ccccc4c3cc2OC)sc2c1CCCC2 do in these assays?
ID4 SMM: inactive

What do the screens show for `O=C(COc1ccc2ccccc2c1)Nc1cccc(NC(=O)c2ccc(Cl)cc2Cl)c1`?
ID4 SMM: inactive

How did O=C(C[C@H]1CC[C@H](NC(=O)C2CCC2)[C@@H](CO)O1)NC1CCC1 do in these assays?
ID4 SMM: inactive

How did C[C@H](CO)N1C[C@H](C)[C@H](CN(C)C(=O)Nc2ccc3c(c2)OCO3)Oc2cc(C3=CCCC3)ccc2S1(=O)=O do in these assays?
ID4 SMM: inactive

How did C[C@@H]1CN([C@H](C)CO)C(=O)c2cc(C3=CCCC3)cnc2O[C@@H]1CN(C)Cc1cccnc1 do in these assays?
ID4 SMM: inactive

How did COc1ccc(-c2ccc3c(c2)O[C@H](CN(C)CC2CC2)[C@H](C)CN([C@H](C)CO)S3(=O)=O)cc1 do in these assays?
ID4 SMM: inactive

How did O=C(C[C@@H]1C=C[C@H](NC(=O)c2cccc(F)c2)[C@H](CO)O1)Nc1nccs1 do in these assays?
ID4 SMM: inactive

Results for COC(=O)c1cc(NC(=O)C(C)N(c2ccc(C)cc2)S(C)(=O)=O)ccc1Cl (centres undefined) ?
ID4 SMM: inactive

Results for COC(=O)c1ccc(CSc2nnc(-c3ccncc3)o2)o1 ?
ID4 SMM: inactive

What do the screens show for `Cc1[nH]c2ccccc2c1C(=O)CSc1nc2scc(-c3ccco3)c2c(=O)n1-c1ccccc1`?
ID4 SMM: inactive

What do the screens show for `C[C@H]1CN([C@@H](C)CO)C(=O)c2cc(-c3cccc(F)c3)cnc2O[C@@H]1CN(C)CC1CCCC1`?
ID4 SMM: inactive

How did C/C=C/c1cnc2c(c1)C(=O)N([C@H](C)CO)C[C@H](C)[C@H](CN(C)CC1CCOCC1)O2 do in these assays?
ID4 SMM: inactive

Results for C[C@H]1CN([C@@H](C)CO)C(=O)c2cc(C3=CCCCC3)cnc2O[C@H]1CN(C)Cc1ccccc1F ?
ID4 SMM: inactive

What do the screens show for `O=C(C[C@H]1C[C@@H]2c3cc(NC(=O)NC4CCCCC4)ccc3O[C@@H]2[C@@H](CO)O1)NCc1ccncc1`?
ID4 SMM: inactive

How did COc1cccc(NC(=O)C(C)NS(=O)(=O)c2ccc(Br)cc2)c1 (centres undefined) do in these assays?
ID4 SMM: inactive

How did CC(C)(C)N(CCO)C(=O)CN1C(=O)/C(=C/c2cccc(Br)c2)SC1=S do in these assays?
ID4 SMM: inactive

Results for CCc1ccc(CCC(=O)Nc2ccc(I)cc2)o1 ?
ID4 SMM: inactive

Results for COc1ccc(NC(=O)CSc2nc3c(c(C(F)(F)F)n2)CCCC3)c([N+](=O)[O-])c1 ?
ID4 SMM: inactive

Results for CO[C@@H](CN(C)C(=O)c1ccc2c(c1)OCO2)[C@@H](C)CN([C@@H](C)CO)S(=O)(=O)c1ccc(C)cc1 ?
ID4 SMM: inactive

What do the screens show for `COCC#Cc1ccc2c(c1)O[C@H](CN(C)CC1CCCCC1)[C@H](C)CN([C@H](C)CO)S2(=O)=O`?
ID4 SMM: inactive

Results for O=C(CSC1CC(=O)N(c2ccccc2)C1=O)Nc1ccc(Br)cc1 (centres undefined) ?
ID4 SMM: inactive

Results for COc1cc(OC)cc(-c2nnc(SCC(=O)Nc3cccc(Cl)c3Cl)o2)c1 ?
ID4 SMM: inactive
